# Bioassay records from PubChem BioAssay.
# TRPML1 inh: inhibitors of human TRPML1 channel | Q9GZU1 | TRPML1-inducible cells, Ca2+ dye fluorescence, FDSS; stronger effect = lower value; inhibition of EC80 agonist-evoked calcium signal | activity change, negative = inhibition, % (test concentration not listed) | 390,000 compounds, 0.02% hits; in the data active means activity change below about -50%; inconclusive means about -30% to -50%; inactive means above about -30%;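 also: stimulus is agonist 54-4 at its EC80 concentration; % is scaled to controls: 0 for no effect and ±100 for the full control effect; compound concentration not given in the record; the text of the record puts the active cut at -80%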
# Target sequence (Q9GZU1 whole entry, looked up): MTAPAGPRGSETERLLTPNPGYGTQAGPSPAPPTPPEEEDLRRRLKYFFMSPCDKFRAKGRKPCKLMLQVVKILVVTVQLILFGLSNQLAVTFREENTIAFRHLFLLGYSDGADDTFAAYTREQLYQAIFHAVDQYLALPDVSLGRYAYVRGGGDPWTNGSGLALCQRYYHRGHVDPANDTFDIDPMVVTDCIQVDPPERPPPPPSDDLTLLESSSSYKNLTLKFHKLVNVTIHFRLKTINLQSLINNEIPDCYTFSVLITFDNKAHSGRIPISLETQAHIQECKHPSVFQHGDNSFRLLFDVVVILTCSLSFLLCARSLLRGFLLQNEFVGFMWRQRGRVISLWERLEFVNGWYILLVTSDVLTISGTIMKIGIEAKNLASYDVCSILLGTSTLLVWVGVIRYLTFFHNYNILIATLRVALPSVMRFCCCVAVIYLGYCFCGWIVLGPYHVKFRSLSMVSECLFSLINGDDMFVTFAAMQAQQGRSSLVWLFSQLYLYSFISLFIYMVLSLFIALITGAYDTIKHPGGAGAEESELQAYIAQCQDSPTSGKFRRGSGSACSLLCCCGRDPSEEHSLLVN
#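 Tet-induced TRPML1-DL cells loaded with Ca8 no-wash calcium dye were read kinetically on FDSS. Compound addition was followed by EC80 agonist 54-4 (4 uM final); inhibition was read over 110 s.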
# PINK1 modulator: PINK1 expression modulation; 410,000 compounds, 0.2% hits; Potency, µM (top dose mostly 76.6 µM), for the others: top-dose activation (PINK1 increase), most hits filed as activators; PINK1 immunofluorescence, high-content cytometry, 24 h; active = well fitted activation curve with a large enough effect; inconclusive = small, poorly fitted or top-dose-only effect; inactive = flat fitted curve, though single readings scatter; cell line not stated here;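 also: potency is read from the fitted curve at half-maximal effect; % of control where 0% means no effect; nearly all actives have a fitted effect of over 65% in size; a mitochondrial uncoupler was the plate control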
#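 A stable cell line was treated with compounds at 5 concentrations for 24 hours, with CCCP as control. PINK1 levels and mitochondrial localization were measured by immunofluorescence with mitochondrial, cell and nuclear markers after fixation, read by laser-scanning cytometry.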
# D2 agonist: activates the human D2 dopamine receptor. P14416. DiscoveRx PathHunter D2 beta-arrestin, luminescence, 90 min; 100% = 57 uM dopamine signal. activation, % (no concentration beside the values). 360,000 compounds, 0.084% hits. AID 624465; in the data active = activation above about 40%; inconclusive = about 15% to 40%; inactive = below about 15%; also: compound concentration not given in the record; the text of the record calls up to 30% inactive
# Target sequence (P14416 whole entry, looked up): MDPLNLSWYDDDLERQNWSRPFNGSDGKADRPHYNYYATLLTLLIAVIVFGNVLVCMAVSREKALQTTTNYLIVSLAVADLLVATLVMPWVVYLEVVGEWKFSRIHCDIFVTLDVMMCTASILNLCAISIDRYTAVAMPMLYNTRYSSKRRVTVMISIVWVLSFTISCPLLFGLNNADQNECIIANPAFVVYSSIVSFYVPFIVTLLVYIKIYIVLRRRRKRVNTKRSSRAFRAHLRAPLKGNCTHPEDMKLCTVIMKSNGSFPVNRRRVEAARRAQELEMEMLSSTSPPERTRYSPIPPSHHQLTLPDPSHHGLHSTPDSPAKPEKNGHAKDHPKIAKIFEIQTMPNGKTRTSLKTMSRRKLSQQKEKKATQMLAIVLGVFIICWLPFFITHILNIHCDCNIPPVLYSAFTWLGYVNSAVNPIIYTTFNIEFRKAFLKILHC
#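 DiscoveRx PathHunter D2 beta-arrestin cells (2,100/well) attached overnight, then compound-stimulated 90 min at 37 C in HBSS/10 mM HEPES/0.1% Tween-20 buffer; beta-galactosidase complementation read by luminescence after 1 h at ambient temperature. Dopamine 57 uM final (EC100) as control.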
# Six1-Eya2 inh: Six1/Eya2 interaction inhibition | AlphaScreen GST-Six1/His-Eya2 binding, biochemical; stronger effect = lower value; control for the full effect not named in the record | activity change, % (test concentration not listed) | 360,000 compounds, 0.56% hits; in the data active = activity change below about -65%; inconclusive = about -30% to -65%; inactive = above about -30%; also: % is scaled to controls: 0 for no effect and ±100 for the full control effect
#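 Six1/Eya2 binding was read as AlphaScreen signal after compounds were pinned into GST-Six1 plus His-tagged Eya2 (5X stock 250/500 nM) in pH 8.0 Tris/NaCl/TCEP buffer, beads added, then incubated 1 h, 37 C, dark.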
# CtBP-E1A blk: blocks the CtBP interaction with E1A. AlphaScreen GST-E1A/His-CtBP binding, 1536-well; stronger effect = lower value; control for the full effect not named in the record. activity change, % (test concentration not listed). 340,000 compounds, 0.49% hits. AID 651724; in the data active means activity change below about -65%; inconclusive means about -30% to -65%; inactive means above about -30%; also: % is scaled to controls: 0 for no effect and ±100 for the full control effect
#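 Protein mix (5X: 125 nM each GST-E1A, His-CtBP) was incubated with pinned compound 2 h at 37 deg C in dark, in 50 mM Tris pH 8.0 buffer with 300 mM NaCl. Glutathione donor and nickel acceptor beads followed; AlphaScreen signal read after 1 h.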
# TRPML1 ag: activates the human TRPML1 channel; TRPML1-expressing cells, Ca2+ dye fluorescence, FDSS; host cell line not named in the record; reference of the full effect not given here; activation, % (test concentration not listed); 410,000 compounds, 0.12% hits; AID 624414; in the data active = activation above about 50%; inconclusive = about 30% to 50%; inactive = below about 30%; also: 0% is about no effect; the text of the record puts the active cut at 80%
#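 Kinetic FDSS Ca2+ read in Tet-induced TRPML1-DL cells (ABD Ca8 dye plus quencher, 45-90 min RT loading): baseline, then compound, then 110 s agonist window; EC80 agonist 54-4 at 4uM final added afterwards for a 110 s antagonist window.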
# Active calls of the source: *; ? = inconclusive; / = no result given; & = joins results of further samples; [ ] = remark or other dose.
# Order of results: TRPML1 inh	PINK1 modulator	D2 agonist	Six1-Eya2 inh	CtBP-E1A blk	TRPML1 ag
CN1C[C@@H]2[C@@H]3C(=O)N(Cc4ccccc4)C(=O)[C@@H]3[C@](C)(C1=O)N2C(=O)c1ccc(C(F)(F)F)cc1
 : 10.2	1.6%	-1.3	2.0	2.9	-0.6
CC1CCC(NC(=O)c2ccc3c(c2)S(=O)(=O)c2ccccc2C3=O)CC1 (centres undefined)
 : -11.3	2.6%	4.9	-3.7	/	-0.1
CCCCCn1c(=N)c(S(=O)(=O)c2ccc(Cl)cc2)cc2c(=O)n3cccc(C)c3nc21
 : 0.0	1.6%	1.7	-2.4	-3.2	1.5
CCOC(=O)c1ccc(CN(Cc2ccc(Cl)cc2Cl)S(=O)(=O)c2cccc(Cl)c2)cc1
 : 21.8	-1.1%	/	/	/	1.9
CCC(=O)N[C@@H]1CC(C(C)(C)NC(=O)CC)CC=C1C (some centres undefined)
 : 17.3	-1.4%	-3.4	-1.6	0.3	0.0
CCOC(=O)c1cc(C)sc1NC(=O)CSC1=NCCS1
 : 17.8	1.0%	-4.8	2.2	-4.0	4.3
CCS(=O)(=O)N1CCC2(CC1)OCCN2S(=O)(=O)c1ccc(OC)cc1
 : 33.9	-0.5%	-5.1	-0.2	3.9	1.6
O=S(=O)(c1cnccc1N1CCN(/N=C/c2ccccc2)CC1)N1CCCCC1
 : 23.2	2.7%	1.2	-11.8	-5.5	0.1
CCC(CC)C(=O)Nc1cccc(-c2nc3ncccn3c2C)c1
 : -1.4	3.9%	/	/	/	-0.3
Cc1ccc(N2C(=O)CCC2=O)c(C)c1
 : -2.9	1.3%	-13.6	14.3	-1.1	0.9
COc1cc(NS(=O)(=O)c2ccc3c(c2)CC(=O)N3)cc(OC)c1OC
 : 2.5	0.7%	/	/	/	0.9
COc1ccc2ccccc2c1CNC(=O)CC1C(=O)NCCN1CC(C)(C)C (centres undefined)
 : 7.1	-0.6%	-2.2	-0.3	2.1	-0.4
CCOc1ccccc1OCC(=O)Nc1cccc(S(=O)(=O)N2CCCCCC2)c1
 : 62.8	-1.1%	-0.3	-11.3	-15.9	3.0
O=C(CCN1C(=O)C2C3CCC(C3)C2C1=O)OCC(=O)c1ccccc1 (centres undefined)
 : -17.5	0.0%	4.2	-6.8	11.5	0.0
CCOC(=O)CN1C(=O)N[C@@H](c2cccc(C(F)(F)F)c2)[C@@H](C(=O)OC)[C@H]1C
 : -3.5	0.9%	-1.5	10.7	-21.7	-0.2
C[C@H](NC(=O)c1ccccc1)C(=O)N1CCC2(CC1)NCCc1[nH]cnc12
 : 14.5	0.1%	-11.5	3.8	0.4	0.2
O=C(CC(O)c1ccncc1)c1ccccc1O (centres undefined)
 : 12.0	-1.8%	-0.4	10.1	0.0	-0.4
CC1(Cc2ccc(Cl)cc2)C(=O)Nc2c(Cl)ccc(Cl)c21 (centres undefined)
 : /	10.6%	-3.5	-0.2	1.4	-1.2
O=C(Nn1c(-c2ccncc2)nc2ccccc2c1=O)c1ccc([N+](=O)[O-])cc1Cl
 : -5.2	3.4%	4.9	?	-28.1	-0.5
Cc1ccc(OCC(=O)N(Cc2ccc(Cl)cc2)Cc2ccco2)cc1C
 : 46.3	0.5%	/	/	/	1.4
O=C(NCc1ccccn1)C(=O)NCC1OCCN1C(=O)c1ccc(Cl)cc1 (centres undefined)
 : -3.3	1.3%	-1.1	-2.1	9.0	0.4
COC(C/C=C/C(=O)[C@@H](C)OCc1ccccc1)OC
 : -17.3	18.6%	-1.7	1.0	-1.9	-0.4
Cn1nnnc1SCC(=O)Nc1ccc(C(=O)N2CCN(Cc3ccccc3F)CC2)cc1
 : ?	0.6%	-4.5	-3.7	-0.4	0.6
O=C1CSC(c2ccccc2)N1c1ccc(F)cc1F (centres undefined)
 : -4.6	-0.6%	-2.9	-2.7	5.1	-1.5
CCN(CC)C(=O)Cn1c(=O)n(CCCCCC(=O)Nc2ccccc2)c(=O)c2sccc21
 : -0.5&10.8	-0.1%&5.6%	-0.1	2.7	4.5	0.2&-0.6
Cc1ccccc1SCc1noc(C(=O)NC(C)C)c1C(=O)O
 : 15.9	2.0%	-3.0	9.3	/	0.3
O=C(c1cc(-c2ccc(Cl)cc2)on1)N1CCOCC1
 : 1.8	3.0%[38.3 µM]	-3.5	3.8	2.8	0.9
C=CCNC(=O)NC(=O)CN1C(=O)NC(c2ccccc2)(c2ccccc2)C1=O
 : 15.7	2.9%	0.6	-0.1	-1.4	0.4
Cn1c(=NC(=O)CS(=O)(=O)c2ccccc2)sc2ccccc21
 : 9.5	-2.1%	2.6	2.8	6.0	1.7
Cc1ccc(S(=O)(=O)Nc2nc3ccccc3nc2NCC2CCCO2)cc1C (centres undefined)
 : 1.7	0.8%	-2.1	-2.9	-0.9	1.0
CC(C)c1ccc(NS(=O)(=O)c2ccc3[nH]cc(C(=O)N4CCCC4)c(=O)c3c2)cc1
 : 4.3	2.4%	/	/	/	2.3
CCN(CC(=O)Nc1ccc(OC)cc1)C(=O)c1cc(-c2cccs2)nn1-c1ccccc1
 : 11.8	-1.1%	-3.2	-14.9	-1.6	1.0
O=C(CSc1ncnc2c1oc1ccccc12)NCC1CCCO1 (centres undefined)
 : -1.7	20.6%[38.3 µM]	-3.3	2.3	4.9	-0.2
CCC(C)c1ccccc1N1CC(C(=O)N2CCN(S(=O)(=O)c3cccc([N+](=O)[O-])c3)CC2)CC1=O (centres undefined)
 : 1.5	0.1%	3.7	1.8	-6.6	0.0
O=C(Nn1c(=O)[nH]c2ccsc2c1=O)c1ccccc1
 : -4.0	1.7%	0.9	2.7	-7.0	0.3
CC(C)(C)[C@H]1COC(=O)[C@H](NC(=O)OCC2c3ccccc3-c3ccccc32)C/C=C\C[C@@H](CC(=O)N[C@H](CO)Cc2ccccc2)C(=O)N1
 : 3.9	5.3%	-2.4	1.5	-0.2	-0.7
CCOC(=O)C1CCN(C(=O)c2cn(CCOC)c(=O)c3c2c2ccccc2n3C)CC1
 : -8.2	2.0%[38.3 µM]	1.0	0.0	-1.9	0.0
CC(=O)c1ccn(S(=O)(=O)c2ccc(Cl)cc2)c1
 : -6.9	1.2%	-4.7	-3.5	-1.8	1.6
O=C(Nc1ccc(SC(F)F)cc1)C1=CC=CN2CCS(=O)(=O)N=C12
 : 9.6	2.9%	-2.8	4.3	-0.4	0.5
COc1ccc(-c2nc3ccccc3o2)cc1NC(=O)c1ccc(Br)o1
 : -1.5	6.6%	0.2	-1.5	-0.9	0.7
O=C(CC1(O)C(=O)Nc2cc(Cl)cc(Cl)c21)c1ccncc1 (centres undefined)
 : 3.9	5.4%[38.3 µM]	-11.3	2.3	7.9	-0.6
O=C(NCc1ccccn1)C(=O)NCC1OCCN1S(=O)(=O)c1ccc(F)cc1 (centres undefined)
 : 7.2	-0.6%	2.7	-1.9	-10.5	0.9
CCN(CC)C(=O)C1CCN(Cc2ccc(Br)cc2)CC1
 : 13.0	-2.4%	-2.2	1.0	-7.8	-0.4
COc1ccc(C(=O)Nc2cccc(OC)c2)cc1
 : 12.4	9.7%[38.3 µM]	0.4	1.6	1.1	1.8
Cc1csc(C(C#N)C(=O)c2ccncc2)n1 (centres undefined)
 : 5.5	-1.7%	-3.7	-3.5	10.3	0.0
COc1ccc(C(=O)NC2CCN(C(=S)Nc3cccc(C)c3)CC2)cc1
 : -2.9	/	2.2	-0.8	3.6	-0.2
CCc1ccc(NC(=O)Cn2ccn(Cc3ccccc3OC)c(=O)c2=O)cc1
 : -17.6	0.4%	/	/	/	1.5
O=C(Nc1ccc(F)cc1)c1cccnc1Oc1ccccc1
 : 7.9	2.7%	2.6	12.8	2.5	-0.9
O=c1[nH]cc(S(=O)(=O)NCc2ccccc2)c(=O)[nH]1
 : 9.4	1.7%	-0.5	3.0	5.1	-0.2
CC1(C)Oc2ccc3ccc(=O)oc3c2[C@@H](O)[C@@H]1O
 : -4.1	-0.6%	2.1	22.6	0.0	-0.2
Clc1cccc(Cl)c1CO/N=C/c1cccs1
 : 0.7	0.3%	-6.0	10.4	9.0	0.7
COc1ccc(N)c(C)c1
 : -11.4	-0.1%	5.1	2.3	-1.9	-0.6
N#CC1=C(N)Oc2n[nH]c(-c3ccccc3)c2C1c1ccncc1 (centres undefined)
 : 3.2	-5.4%	-0.7	-3.9	-3.8	-0.3
Nc1ccc2nc(-c3ccccc3)[nH]c2c1
 : 19.2	-0.2%	2.5	-2.3	-14.8	2.7
COc1ccc(-c2cn3c(C)c(C(=O)N4CCN(c5ccccc5)CC4)sc3n2)cc1
 : -15.8	-0.5%	0.6	-1.1	-4.1	0.6
O=c1[nH]c(O)c(/C=C2\C=Nc3ccccc32)[nH]1
 : 14.9	0.6%	-1.5	-2.4	-0.1	3.0
COc1ccc(-c2nnc(SCc3nc4ccccc4s3)n2C(C)C)cc1
 : 4.4	-2.5%	-2.7	-16.8	2.0	0.5
CN(C(=O)c1cccc(C(=O)N(C)c2ccccc2)c1)c1ccccc1
 : 9.9	0.4%	0.3	-20.6	-8.0	1.9
N/C(=N\OC(=O)CC1CCCCC1)c1ccccn1
 : -2.1	/	3.9	-0.9	-5.2	-0.3
Cc1ccccc1NC(=O)NC1(C(=O)N2CCOCC2)CCCCC1
 : 4.5	-0.5%	1.8	4.9	1.4	-0.9

# Continued:
# Order of results: TRPML1 inh	PINK1 modulator	D2 agonist	Six1-Eya2 inh	CtBP-E1A blk	TRPML1 ag
Cc1cc(NC(=O)CCC(=O)N(CC(=O)NCC2CCCO2)c2ccccc2)no1 (centres undefined)
 : 13.3	3.0%	1.4	1.5	0.9	-0.6
CCCCOC(=O)C1CCCC(C(=O)OCCCC)N1 (centres undefined)
 : 27.4	0.9%	-0.4	6.8	3.1	0.1
O=C(NC1C(=O)NNC1c1ccc(Cl)cc1)c1ccc(F)cc1 (centres undefined)
 : 17.7	1.1%	-1.9	2.9	/	0.4
O=C1Cc2ccccc2C(=O)N1c1ccc(F)cc1Cl
 : 5.3	-1.0%	-2.4	-2.1	9.4	-0.2
CCOc1ccccc1NC(=S)NCCc1ccc(F)cc1
 : -16.8	0.8%	-0.9	-7.2	-0.5	1.0
COc1ccccc1NC(=O)CN1CCOCC1
 : -15.9	0.3%	-2.6	-0.5	-2.0	0.6
Cc1ccc(-c2nn(-c3cc(N4CCNCC4)ccc3[N+](=O)[O-])c(=O)c3ccccc23)cc1
 : 40.9	-1.4%	-3.5	-11.6	-12.3	-0.2
COC(=O)Nc1ccc(S(=O)(=O)N2CCC(C(=O)NCc3ccc4c(c3)OCO4)CC2)cc1
 : 6.1	0.3%	-1.7	2.1	0.4	1.7
O=C(Cc1ccccc1)Nc1ccccc1C(=O)N1CCCCC1
 : 9.3	0.3%	-5.0	-9.9	-5.7	0.7
O=c1[nH]c(SCCc2ccccc2)nc2c1CCC2
 : 42.1	0.5%	5.1	-2.4	1.0	0.0
CC1(C)C2CC[C@]3(C)C(CC=C4[C@@H]5C[C@@](C)(CO)CC[C@]5(C(=O)O)CC[C@]43C)[C@@]2(C)CC[C@@H]1O (some centres undefined)
 : /	-0.8%	-5.3	-1.0	3.7	/
